# Compound activity as filed in PubChem.
# rRNA inh HTS – inhibitors of bacterial rRNA selective over humanized ribosomes. E. coli WT GFP vs humanized-ribosome RFP mutants, fluorescence, 24 h; active compounds read low; DMSO median 0, no signal -100. GFP signal change (wild-type ribosome), % (concentration not given with the values). 1.6% of 350,000 active. AID 720706;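 active = significant combined selectivity score with lowered wild-type GFP, culture density cut under 30%, mutant RFP and density less affected; inactive = any of these conditions unmet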; note: one replicate is shown; some compounds called inactive have numbers as strong as hits
# MLL AF4-AF9 inh – MLL-AF4/AF9 protein interaction inhibition | P42568 | AlphaScreen, biotin-AF4 peptide binding to FLAG-AF9 | inhibition, % at 10 µM | 0.47% of 350,000 active | AID 651704;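 active = every replicate reaching a set inhibition limit, whatever the replicate mean, cut at about 25% in these data; inconclusive = mean inhibition reaches that limit but some replicates miss it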;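 note: 0% = plate neutral control median and 100% = total signal loss; the record names both 10 and 1 µM as test concentration; the first replicate is given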
# Target sequence (P42568 whole entry, looked up): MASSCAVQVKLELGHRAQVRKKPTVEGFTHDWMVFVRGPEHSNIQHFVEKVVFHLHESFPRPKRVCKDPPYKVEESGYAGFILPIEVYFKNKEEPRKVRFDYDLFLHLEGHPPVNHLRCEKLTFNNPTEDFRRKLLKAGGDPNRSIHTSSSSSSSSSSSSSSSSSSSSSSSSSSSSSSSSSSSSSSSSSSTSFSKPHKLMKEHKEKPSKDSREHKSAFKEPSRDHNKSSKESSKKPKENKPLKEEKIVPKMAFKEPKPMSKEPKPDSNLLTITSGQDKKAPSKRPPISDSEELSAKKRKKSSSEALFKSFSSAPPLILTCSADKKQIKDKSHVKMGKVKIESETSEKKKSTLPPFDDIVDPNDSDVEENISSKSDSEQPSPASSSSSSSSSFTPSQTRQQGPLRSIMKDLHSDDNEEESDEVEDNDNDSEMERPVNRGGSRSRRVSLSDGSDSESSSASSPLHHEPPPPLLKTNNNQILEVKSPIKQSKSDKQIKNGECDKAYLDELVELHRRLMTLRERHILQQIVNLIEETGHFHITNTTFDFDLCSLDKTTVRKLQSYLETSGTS
# E coli growth – blocks Escherichia coli growth | OD600, 23 h; active compounds read low | OD600 absorbance (test concentration not listed) | 0.21% of 330,000 active | AID 1053175;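 active = OD600 absorbance below the run mean of sample wells minus 3.6 SD, in any replicate, cut at about 0.56 in these data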;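 note: stock transfer was 300 nL into about 60 µL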
# HNF4A DNA FP – change in binding of human HNF4 alpha to DNA; HNF4a-FITC DNA binding, fluorescence polarization, 1 h; AID 1224865; 0.3% of 360,000 active; P41235; activity change, % at 10 µM; in the data active = activity change above about 30%, passing the limit was not always enough;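 note: controls were the assay level and a saturating level of protein; the project sought stronger binding though the title names inhibitors; some compounds called inactive have numbers as strong as hits; positive values seem to mean higher polarization but the record does not say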
# Target sequence (P41235 whole entry, looked up): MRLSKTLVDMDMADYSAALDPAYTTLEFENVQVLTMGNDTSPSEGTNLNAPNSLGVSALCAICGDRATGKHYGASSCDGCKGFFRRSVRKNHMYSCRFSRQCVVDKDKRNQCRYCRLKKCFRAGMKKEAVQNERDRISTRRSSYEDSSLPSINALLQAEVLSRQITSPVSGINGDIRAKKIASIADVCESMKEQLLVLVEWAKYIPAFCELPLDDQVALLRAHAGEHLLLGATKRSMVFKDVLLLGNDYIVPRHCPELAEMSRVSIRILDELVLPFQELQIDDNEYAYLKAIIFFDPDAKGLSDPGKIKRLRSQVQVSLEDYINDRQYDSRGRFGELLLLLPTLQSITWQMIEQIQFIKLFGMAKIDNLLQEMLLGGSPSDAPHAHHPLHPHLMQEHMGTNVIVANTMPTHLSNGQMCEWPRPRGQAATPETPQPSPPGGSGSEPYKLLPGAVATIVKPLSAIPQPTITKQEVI
# Vif A3G – HIV-1 Vif–A3G interaction blockers – biochemical, TR-FRET, GST-Vif 1-94, biotin-A3G peptide, dose response retest, primary screen (AID 1117319). TR-FRET GST-Vif / biotin-A3G peptide binding; higher % means a stronger effect; test concentration not given here; strong numbers were not always called active. one-dose inhibition, %; IC50 in µM for titrated hits. 0.57% of 260,000 active;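 active = above the screen mean plus three standard deviations and confirmed in dose response; inconclusive = results disagree or hit not tested in dose response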;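 note: Vif residues 1-94 fused to GST binding biotinylated APOBEC3G peptide 110-148; 0% = full assay without inhibitor and 100% = GST in place of GST-Vif; retest series ran down from 100 µM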
# ALR H2O2 inh – inhibitors of human sulfhydryl oxidase ALR; 3.8% of 290,000 active; purified ALR, DTT oxidation, H2O2 HRP-luminol luminescence; AID 485317; inhibition, % (no concentration beside the values);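 active = mean and each replicate at 75% or more; inconclusive = only one of the two met; inactive = neither met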;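 note: stock transfer was 7.5 nL into about 7.5 µL; 0% = neutral wells and 100% = wells with inactivated enzyme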
# FGF22 binding – binders of recombinant human FGF22 by thermal shift; Q9HCT0; SYPRO orange fluorescence; percent of sucrose octasulfate shift, DMSO zero; calls only at 9.99 µM; 1.5% of 340,000 active; AID 651658;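 active = melting point raised past a set limit in the mean and every replicate; inconclusive = no clear call; three in four hits are not shown here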
# rRNA inh HTS OD600 – further read-out of rRNA inh HTS, marked with its call; OD600 change, %; measured here: OD600 growth;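 optical density of the mix in the first replicate; 0 = DMSO median and -100 = no signal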
# rRNA inh HTS RFP – second read-out of rRNA inh HTS, no call of its own (marks repeat the call); RFP signal change, %; measured here: RFP humanized mutant strains;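 first replicate; 0 = DMSO median and -100 = no signal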
# * hit, by the source's call; i = inactive; ? = inconclusive; · = not tested or not shown. The list is partial; the hit share may differ from the screen's.
SMILES,rRNA inh HTS,rRNA inh HTS OD600,rRNA inh HTS RFP,MLL AF4-AF9 inh,E coli growth,HNF4A DNA FP,Vif A3G,ALR H2O2 inh,FGF22 binding
Cc1c(Cl)c([N+](=O)[O-])nn1CC(=O)NCCCN1CCOCC1,-11,3,-2.5,-8.4,0.68,0.8,·,·,i
O=[N+]([O-])c1ccc(N2CCN(Cc3ccccc3)CC2)c(S(=O)(=O)N2CCOCC2)c1,·,·,·,·,0.78,0.3,0%,-10,·
CCCNC(=O)COc1ccc2c(=O)c(Oc3ccccc3F)coc2c1,8,14,0.3,3.0,0.66,2.2,5%,-5,i
Cc1ccccc1-c1ccc([C@H]2[C@@H](CO)N3CCCCN(S(=O)(=O)Cc4ccccc4)C[C@H]23)cc1,-55,-79,-14,2.0,·,·,·,·,i
COCCNC(=O)c1ccc(N2CC3CC(C2)c2cccc(=O)n2C3)c(NC(=O)c2ccccc2Cl)c1 (centres undefined),3,-3,3.1,-1.1,·,2.6,·,·,i
Cc1ccccc1NC(=O)CN1C(=O)NC(C)(CCc2ccccc2)C1=O (centres undefined),0,3,2.5,0.5,0.66,0.0,-8%,-14,i
O=C(Nc1cccc([N+](=O)[O-])c1)OCc1ccc2c(c1)OCO2,-46,-48,-8.2,-3.9,·,·,·,·,i
C[C@@H]1CN([C@H](C)CO)C(=O)c2cccc(NC(=O)C3CC3)c2O[C@@H]1CN(C)Cc1ccncc1,3,10,-2.7,-5.2,·,·,·,·,i
CC(=O)n1cc(/C=N/NC(N)=S)c2ccccc21,-1,-11,1.2,7.9,·,0.1,·,71,i
Nc1cc(N)cc(-c2nc3ccccc3o2)c1,6,1,7.1,19,0.75,6.2,·,-324,i
O=C(CN1C(=O)C2C3c4ccccc4C(c4ccccc43)C2C1=O)Nc1cccc(C(=O)O)c1 (centres undefined),·,·,·,·,0.64,-2.6,-4%,-13,·
Cc1nc(C)c(C(=O)N(c2ccc(F)cc2)C(C(=O)NCC2CCCO2)c2ccccc2)s1 (centres undefined),2,10,1.2,-2.7,0.64,3.9,1%,·,i
CSC1=C(C#N)C(c2ccc(C(C)C)cc2)CC(=O)N1 (centres undefined),2,1,2.6,-2.8,0.81,-3.6,-2%,-14,i
O=C(Nc1cccc(-c2cnc3ccccc3n2)c1)c1cccc(NC(=O)c2ccco2)c1,·,·,·,·,0.68,6.4,-2%,2,·
COc1ccc(Cl)cc1NC(=O)/C=C\C(=O)O,·,·,·,·,0.67,-0.5,10%,-2,·
Cc1ccc(C(=O)Nc2nc3ccccc3n2CCN2CCCC2)cc1,·,·,·,·,0.72,-0.7,66%,-7,·
C[C@H](CO)N1C[C@H](C)[C@@H](CN(C)Cc2cccc(F)c2)Oc2ncc(C#CCc3ccccc3)cc2C1=O,-35*,-28*,-5.7*,11,·,·,·,·,i
O=C(COC(=O)C1=COCCO1)Nc1ncc(C(F)(F)F)cc1Cl,·,·,·,·,0.69,3.5,-1%,-3,·
NC(=O)c1c(NC(=S)Nc2ccc(F)cc2)sc2c1CCCC2,-30,-30,-0.2,1.4,0.69,15,·,90*,i
COc1cc(C2Nc3ccccc3NC3=C2C(=O)CC(C)(C)C3)cc(OC)c1OC (centres undefined),-3,-11,74,0.7,0.67,1.4,·,75,i
Cc1ccccc1-n1nnnc1Sc1nnnn1-c1ccccc1,·,·,·,·,0.67,0.9,5%,1,·
Cc1nc2c(c(-c3ccccc3)c1C#N)C(=O)c1ccccc1-2,·,·,·,·,0.76,5.2,-30%,-15,·
O=C1NC2(CCOc3ccccc32)C(=O)N1CC(=O)N(Cc1ccccc1)C1CCS(=O)(=O)C1 (centres undefined),·,·,·,·,0.7,1.1,-1%,4,·
O=C(c1ccc(Cn2c(=S)[nH]c3cc4c(cc3c2=O)OCO4)cc1)N1CCN(c2ncccn2)CC1,·,·,·,·,0.73,·,-2%,-2,·
CCC(C)[C@H]1CNCCN1CCc1cccc(F)c1 (some centres undefined),11,18,-0.3,3.2,·,1.9,·,-4,i
Cc1ccc(NC(=O)COC(=O)c2ccc[n+]([O-])c2)c(Br)c1,16,13,0.4,-2.8,0.6,7.3,·,0,i
OCC[C@H]1C[C@H](O)[C@@H](O)[C@]2(Cc3ccccc3CCO2)O1,2,4,0.0,0.0,·,-1.4,·,-4,i
CC(C)(C)Cc1c(-c2cccc(Cl)c2)nc2ccc(Cl)cn12,2,13,14,0.7,·,24,·,·,i
CC(=O)N(C)C[C@@H]1Oc2cc(-c3cccnc3)ccc2S(=O)(=O)N([C@H](C)CO)C[C@@H]1C,1,2,-2.8,-0.4,·,·,·,·,i
CN1CCN(/N=C/c2nc(-c3cccc([N+](=O)[O-])c3)n3ccccc23)CC1,·,·,·,3.5,·,0.4,21%,99*,i

# Complete entries, looked up by structure. Order of screens: rRNA inh HTS, rRNA inh HTS OD600, rRNA inh HTS RFP, MLL AF4-AF9 inh, E coli growth, HNF4A DNA FP, Vif A3G, ALR H2O2 inh, FGF22 binding
# CC(=O)N(C)C[C@@H]1Oc2cc(-c3cccnc3)ccc2S(=O)(=O)N([C@H](C)CO)C[C@@H]1C as listed: 1, 2, -2.8, -0.4, ·, ·, ·, ·, i
# O=C(Nc1cccc(-c2cnc3ccccc3n2)c1)c1cccc(NC(=O)c2ccco2)c1 as listed: ·, ·, ·, ·, 0.68, 6.4, -2%, 2, ·
# NC(=O)c1c(NC(=S)Nc2ccc(F)cc2)sc2c1CCCC2 as listed: -30, -30, -0.2, 1.4, 0.69, 15, ·, 90*, i
# OCC[C@H]1C[C@H](O)[C@@H](O)[C@]2(Cc3ccccc3CCO2)O1 as listed: 2, 4, 0.0, 0.0, ·, -1.4, ·, -4, i

# The results go on.
SMILES,rRNA inh HTS,rRNA inh HTS OD600,rRNA inh HTS RFP,MLL AF4-AF9 inh,E coli growth,HNF4A DNA FP,Vif A3G,ALR H2O2 inh,FGF22 binding
CC(=O)N(C)C1=C(N2CCOCC2)C(=O)c2ccccc2C1=O,·,·,·,·,0.64,-1.3,-4%,-40,·
C/C=C/c1ccc([C@@H]2[C@@H](CO)N(C(=O)CN3CCOCC3)[C@H]2C#N)cc1,4,5,1.1,-0.7,·,·,·,·,i
Cc1ccccc1S(=O)(=O)N(C)C[C@@H]1OCc2ccccc2-c2c(n(C)c3ccccc23)C(=O)N([C@@H](C)CO)C[C@@H]1C,1,0,1.3,4.1,·,·,·,·,i
O=[N+]([O-])c1cccc(CSC2=NCCN2S(=O)(=O)c2ccccc2)c1,-4,1,3.1,2.2,0.7,-0.2,6%,?,i
Nc1nc(SCC(=O)Nc2cccc([N+](=O)[O-])c2)n[nH]1,7,15,4.9,2.5,0.67,-0.3,-7%,22,i
CN(C)CC(=O)N1[C@@H]2c3ccc(-c4ccc(F)cc4)c(=O)n3C[C@@H]2[C@@H](CO)[C@@H]1C(=O)NC1CCCC1,0,3,0.1,-1.6,·,·,·,·,i
Cc1ccc(NC(=O)C2C(=O)N(C)c3ccccc32)cc1 (centres undefined),8,6,-0.9,-1.5,0.72,0.3,·,1,i
C[C@@H]1CCCCO[C@@H](CN(C)CC2CCCCC2)[C@H](C)CN([C@@H](C)CO)C(=O)c2cc(N(C)C)ccc2O1,-2,7,0.2,37*,·,·,·,·,i
O=C1ON(Cc2ccccc2)C(c2ccccc2)N1c1ccccc1 (centres undefined),14,14,2.6,2.9,·,0.1,-11%,·,i
COCCNC(=O)C[C@@H]1CC[C@@H](NS(=O)(=O)c2ccc(C)cc2)[C@@H](CO)O1,4,10,0.4,0.5,·,·,·,·,i
CC(O)C1CCC2C3CC[C@H]4CC(O)CCC4(C)C3CC3(OCCO3)C12C (some centres undefined),·,·,·,·,0.67,-2.4,5%,-23,·
CCOC(=O)N1CCN(C(=O)CCn2c(=S)[nH]c3ccsc3c2=O)CC1,6,5,-0.1,-3.0,0.73,-1.4,-1%,·,i
C[C@H](CO)N1C[C@H](C)[C@H](CN(C)C(=O)c2ccccc2)Oc2ncc(C#C[C@@H](C)O)cc2C1=O,3,1,-1.5,-3.0,·,·,·,·,i
C=CCc1c(C)nc(C)nc1N/N=C/c1ccccc1,·,·,·,·,·,-1.4,4%,7,·
CCOC(=O)c1sc(/N=C/C2=C(O)CC(C)(C)CC2=O)c(C(=O)OCC)c1C,-23*,-5.5*,-2.5*,-0.5,·,2.0,10%,1,i
Cc1c(OCC(=O)NCCCN2CCOCC2)ccc2c3c(c(=O)oc12)CCC3,5,7,0.0,-4.3,0.67,11,·,-3,i
CC(O)c1nc2ccc(Cc3ccc4nc(C(C)O)[nH]c4c3)cc2[nH]1 (centres undefined),·,·,·,·,0.67,-3.5,?,-4,·
CN(CC(=O)NCc1ccc(Cl)cc1)S(=O)(=O)c1cccc2nsnc12,·,·,·,·,0.71,-7.9,1%,-8,·
COc1ccccc1CNC(=O)c1ccc2ccccc2n1,-5,-12,3.2,-2.4,0.67,-0.9,·,6,i
Nc1ccc2[nH]c(=S)[nH]c2c1,3,8,-0.9,1.5,0.72,-0.6,-4%,·,i
COc1cccc(C(=O)NCCNC(=O)c2ccc(C)nc2)c1,6,24,1.4,0.7,0.65,1.7,-3%,-1,i
C[C@@H]1CN([C@H](C)CO)C(=O)c2cccc(NC(=O)c3ccc(-c4nccs4)cc3)c2O[C@@H]1CN(C)Cc1ccccc1,-1,-4,-0.1,-3.6,·,·,·,·,i
COC(=O)Cc1[nH]n(-c2ccccc2)c(=O)c1C(C)=Nc1ccccc1,4,11,-0.9,-0.6,0.69,2.3,7%,-4,i
Fc1ccc(NC(=S)NCc2ccccc2Cl)cc1,3,6,4.2,-5.1,0.66,0.3,-1%,-7,i
COc1ccc(C2/C=C\CN(CC(C)C)CC(=O)N2Cc2ccc(F)cc2)cc1 (centres undefined),-22,-24,4.3,1.4,·,0.0,·,·,i
NC(=O)[C@@H]1CC2(CC(c3cccc(NC(=O)[C@H]4CCC(=O)N4)c3)=NO2)CN1C(=O)c1ccc(Cl)cc1 (some centres undefined),10,8,5.9,0.1,·,-3.6,5%,·,i
O=C(Cc1ccccc1)NNS(=O)(=O)c1ccc(F)cc1,14,8,-0.9,-0.6,0.67,-6.8,2%,9,i
O=C(/C=C/c1ccco1)Nc1cccc(NC(=O)/C=C/c2ccco2)n1,-13,7,7.2,8.7,·,-6.6,·,16,i
COc1cccc(N(C(=O)CNC(=O)c2ccco2)C(C(=O)NC2CCCC2)c2ccco2)c1 (centres undefined),-1,6,2.5,1.5,0.69,0.4,·,19,i
COCCOC(=O)C1=C(N)Oc2c(oc(CO)cc2=O)C1c1c(F)cccc1Cl (centres undefined),-4,-3,-1.4,0.9,0.64,3.9,?,-4,i
COc1ccc(S(=O)(=O)NCCc2cn3cccc(C)c3n2)cc1OC,3,4,-6.3,-1.6,0.78,-3.2,-4%,·,i
Cc1ccc(C)c(NC(=O)COC(=O)CNC(=O)c2ccccc2Cl)c1,11,-3,-0.7,-0.1,0.66,-1.6,-8%,-1,i
CC1(c2ccccc2)CC(C)(C)N(C(N)=O)c2ccccc21 (centres undefined),-2,12,-1.4,-0.1,0.67,0.0,·,-41,i
CCOc1ccc(N(CC(=O)NC(C)CC)S(C)(=O)=O)cc1 (centres undefined),·,·,·,·,0.73,2.5,-3%,-10,·
Cc1cc(/C=N\NC(=O)CC(=O)NC2CCCCC2)c(C)n1-c1ccc(Cl)c(Cl)c1,·,·,·,·,·,0.1,0%,-4,·
CC(C)Cc1ccc(-c2cc3nc(NCCCn4ccnc4)ccn3n2)cc1,-39,-52,-5.0,9.1,·,6.8,·,·,i
NC(N)=NC1=NC(=O)/C(=C/c2ccccc2-n2cccn2)S1,15,-6,5.8,-1.3,0.69,-1.8,1%,-9,i
